RanGTP-Impb inh – inhibitors of RanGTP-importin-beta interaction, primary screen, biochemical, FRET, CFP-Ran, YFP-importin-beta, homogeneous | cell-free CFP-Ran/YFP-importin-beta FRET ratio | inhibition, % (concentration not given with the values) | 300,000 compounds, 1.1% hits;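 active = most replicates above 15%; inconclusive = exactly half above 15%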;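 note: 0% = DMSO wells and 100% = Ran loaded with GDP instead of GTP; wells of about 40 µL received 100 nL stock; the first replicate is given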
Calb FLC – C. albicans growth modulation with fluconazole; C. albicans CaCi-2 (fluconazole-resistant clinical isolate) + fluconazole, Alamar Blue growth, 48 h; AID 1979; growth inhibition, % (no concentration beside the values); 300,000 compounds, 0.57% hits;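 active = most replicates above 75%; inconclusive = exactly half above 75%; inactive = most below 75%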;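 note: all wells also contain fluconazole at 8 µg/ml as a sub-toxic cotreatment; 0% = median of DMSO wells and 100% = median of geldanamycin control wells; wells of about 8 µL received 7.5 nL stock; the first replicate is given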
B2AR ag – activates human beta-2 adrenergic receptor causing internalization; Am2.2-beta2AR cells, FAP receptor internalization, flow cytometry; reference of the scale not given here; response, % (no concentration beside the values); 340,000 compounds, 0.43% hits; AID 504454;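 active = response above a set limit, near 3 SD of response in nonfluorescent compounds, cut at about 42% in these data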;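 note: stock transfer was 100 nL into about 11 µL; a reference agonist was the positive control; negative values mostly stem from fluorescent compounds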
T cruzi repl – T. cruzi replication inhibition | T. cruzi beta-gal in NIH3T3, luminescence, 90 h | inhibition, % (no concentration beside the values) | 300,000 compounds, 1.4% hits | AID 1885;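 active = mean inhibition across valid replicates above about 55%, limit read from the data; inconclusive = mean below that limit but half or more replicates reach it; inactive = mean below it, under half of replicates reach it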;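 note: signal also drops with host cell toxicity which is not excluded here; 0% = plate median of DMSO wells and 100% = zero luminescence signal; higher percent means less beta-gal luminescence so fewer parasites; stock transfer was 50 nL into about 50 µL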
LANA-H2B inh – blocks KSHV LANA binding to histone H2A/H2B | Q9QR71 | cell-free LANA-H2A/H2B peptide, fluorescence polarization | inhibition, % (concentration not given with the values) | 320,000 compounds, 0.6% hits | AID 2629; in the data active = inhibition mostly above about 10%, no sharp cut-off; inactive = mostly below about 6.7%;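 note: stock transfer was 7.5 nL into about 10 µL; 0% = median of vehicle wells and 100% = median of positive control wells; one replicate is shown; the record names a cut of 25% in any replicate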
Target sequence (Q9QR71 whole entry, looked up): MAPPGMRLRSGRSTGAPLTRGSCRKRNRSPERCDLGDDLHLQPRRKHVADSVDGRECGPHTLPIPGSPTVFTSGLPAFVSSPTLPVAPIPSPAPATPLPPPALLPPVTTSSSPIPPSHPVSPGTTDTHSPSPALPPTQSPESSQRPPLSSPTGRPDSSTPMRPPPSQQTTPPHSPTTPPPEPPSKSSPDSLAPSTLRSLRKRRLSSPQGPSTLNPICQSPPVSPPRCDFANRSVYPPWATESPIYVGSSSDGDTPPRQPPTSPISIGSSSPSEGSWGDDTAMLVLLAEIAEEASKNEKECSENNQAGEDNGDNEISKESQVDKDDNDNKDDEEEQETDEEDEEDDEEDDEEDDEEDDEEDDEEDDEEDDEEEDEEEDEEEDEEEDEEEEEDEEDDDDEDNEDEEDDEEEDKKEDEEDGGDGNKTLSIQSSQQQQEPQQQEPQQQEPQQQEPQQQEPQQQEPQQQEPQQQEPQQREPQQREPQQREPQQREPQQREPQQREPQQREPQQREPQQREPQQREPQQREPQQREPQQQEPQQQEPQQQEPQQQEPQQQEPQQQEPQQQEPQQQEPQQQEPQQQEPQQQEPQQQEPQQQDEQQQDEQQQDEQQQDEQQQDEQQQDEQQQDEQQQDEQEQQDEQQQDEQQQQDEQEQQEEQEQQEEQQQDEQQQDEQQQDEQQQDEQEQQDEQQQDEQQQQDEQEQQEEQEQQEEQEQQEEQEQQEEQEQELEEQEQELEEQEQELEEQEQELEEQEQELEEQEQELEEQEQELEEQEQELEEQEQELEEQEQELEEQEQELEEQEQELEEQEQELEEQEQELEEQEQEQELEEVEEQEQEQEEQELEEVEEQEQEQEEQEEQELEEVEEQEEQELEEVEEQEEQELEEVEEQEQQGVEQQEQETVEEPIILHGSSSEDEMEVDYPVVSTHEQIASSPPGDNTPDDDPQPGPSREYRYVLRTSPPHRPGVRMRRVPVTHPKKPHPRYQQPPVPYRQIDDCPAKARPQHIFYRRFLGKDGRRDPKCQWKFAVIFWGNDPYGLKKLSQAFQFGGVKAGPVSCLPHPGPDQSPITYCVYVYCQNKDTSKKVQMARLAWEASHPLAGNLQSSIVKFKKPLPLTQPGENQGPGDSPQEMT
Beta apoptosis – beta cell apoptosis inhibition | INS-1E cytokine-induced death, ATP luminescence, 48 h; percent of positive-control rescue, neutral wells zero | protection from apoptosis, % (no concentration beside the values) | 300,000 compounds, 0.8% hits | AID 435005;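 active = all replicates at 75% or more, or half of them and the mean; inconclusive = half reach 75% but not the mean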;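 note: 0% = cytokine-treated negative control wells and 100% = positive control rescue; higher means more ATP so stronger rescue from cytokine killing; wells of about 40 µL received 100 nL stock; the first replicate is given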
A1 inh – inhibitors of the anti-apoptotic protein A1, read as caspase activation; MEF A1-2A-BIM cells, Caspase-Glo 3/7 luminescence, 3 h; percent of clofoctol response, vehicle zero; caspase activation, % (no concentration beside the values); 330,000 compounds, 0.066% hits;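 active = over half of replicate activation scores above 10%, or exactly half above 10 with the replicate mean above 10; inconclusive = replicate mean below 10 yet half the replicates above 10; inactive = over half of replicates below 10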;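 note: wells of about 30 µL received 50 nL stock; many hits fall short of the cut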
UCH37 DUB inh – inhibitors of human deubiquitinating enzyme UCH37. Q9Y5K5. purified proteasome/UCH37, Ub-AMC cleavage fluorescence. inhibition, % (no concentration beside the values). 330,000 compounds, 0.33% hits. AID 588478;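 active = mean of two replicates above 20%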;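 note: 0% = compound-free wells with enzyme and 100% = wells lacking proteasome; stock transfer was 100 nL into about 20 µL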
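Reagent: Ub-AMC substrate; assay system: Proteasome-associated human UCH37 deubiquitinase; controls: no-proteasome and no-compound wells; read-out: % inhibition of Ub-AMC cleavage fluorescence; timing: 30 min preincubation with enzyme, 25 min cleavage at room temperature; signal: AMC fluorescence from Ub-AMC cleavage, excitation 355 nm, emission 460 nm; buffer or medium: Tris-HCl pH 7.4 plus ovalbumin, ATP-MgCl2, DTT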
An asterisk follows results filed as active.

What do the screens show for `O=C(Nc1ncccc1O)c1ccc2ccccc2c1`?
RanGTP-Impb inh: 3.2; Calb FLC: -6.6; B2AR ag: -0.1; T cruzi repl: -3.4; LANA-H2B inh: -1.8; Beta apoptosis: -5.0; A1 inh: -4.0; UCH37 DUB inh: 7.5

What do the screens show for `COc1ccc(N(CC2CO2)S(=O)(=O)c2ccccc2)cc1` (stereo unspecified)?
RanGTP-Impb inh: -4.1; Calb FLC: 8.6; B2AR ag: 0.4; T cruzi repl: -13.4; LANA-H2B inh: 3.5; Beta apoptosis: 2.7; A1 inh: 0.3; UCH37 DUB inh: 1.9

Results for Cc1cc(C)c(NC(=O)CCCC(=O)O)c(Cl)c1 ?
RanGTP-Impb inh: inconclusive; Calb FLC: -11.2; B2AR ag: 6.0; T cruzi repl: -10.2; LANA-H2B inh: -1.9; Beta apoptosis: -3.0; A1 inh: -1.5; UCH37 DUB inh: -1.0

What do the screens show for `COc1cc(/C=N/Nc2ccccn2)ccc1O`?
RanGTP-Impb inh: -3.1; Calb FLC: -3.2; B2AR ag: -2.3; T cruzi repl: -2.1; LANA-H2B inh: 0.3; Beta apoptosis: -17.0; A1 inh: 0.9

How did COc1ncnc(OC)c1S(=O)(=O)Nc1ccc(C(F)(F)F)cc1 do in these assays?
RanGTP-Impb inh: -1.7; Calb FLC: 6.8; B2AR ag: -2.1; T cruzi repl: -1.4; LANA-H2B inh: 6.6; Beta apoptosis: inconclusive; A1 inh: -0.4; UCH37 DUB inh: 1.4

Results for CCC(C)n1c(S(=O)(=O)O)nc2ccccc21 (stereo unspecified) ?
RanGTP-Impb inh: -0.2; Calb FLC: -24.7; B2AR ag: 3.9; T cruzi repl: 3.8; LANA-H2B inh: 4.5; Beta apoptosis: 0.5; A1 inh: -0.2; UCH37 DUB inh: 1.0

How did COc1ccc(CNC(=O)C2(CC3CC(c4ccccc4)=NO3)CCN(C(=O)c3cccc(O)c3)CC2)cc1 (stereo unspecified) do in these assays?
RanGTP-Impb inh: 5.1; Calb FLC: 2.0; B2AR ag: -4.5; T cruzi repl: 8.8; LANA-H2B inh: -2.0; Beta apoptosis: 2.1; A1 inh: 0.0; UCH37 DUB inh: 4.4

Results for CCOc1ccc(C(=O)NCC(=O)OCC(=O)Nc2ccc(C)c(S(=O)(=O)N(C)C)c2)cc1 ?
RanGTP-Impb inh: 2.1; Calb FLC: 19.2; B2AR ag: -2.1; T cruzi repl: -7.7; LANA-H2B inh: -0.7; Beta apoptosis: -3.0; A1 inh: -0.7; UCH37 DUB inh: 1.2

How did CC(=O)Nc1cccc(NS(=O)(=O)c2cccc3nsnc23)c1 do in these assays?
RanGTP-Impb inh: 1.5; Calb FLC: -4.5; B2AR ag: 7.7; T cruzi repl: -7.5; LANA-H2B inh: 0.9; Beta apoptosis: 5.2; A1 inh: 0.0; UCH37 DUB inh: 2.4

How did CCn1c(CCC(=O)O)nc2cc(S(=O)(=O)N(C)C)ccc21 do in these assays?
RanGTP-Impb inh: -1.8; Calb FLC: -25.6; B2AR ag: 4.6; T cruzi repl: -10.7; LANA-H2B inh: 6.6; Beta apoptosis: -1.6; A1 inh: 0.2; UCH37 DUB inh: 2.1

Results for Cc1cc(=O)oc2cc(OC(=O)CCN3C(=O)c4ccccc4C3=O)ccc12 ?
RanGTP-Impb inh: 4.4; Calb FLC: 42.5; B2AR ag: 8.0; T cruzi repl: -7.9; LANA-H2B inh: 0.4; Beta apoptosis: 4.4; A1 inh: -0.1; UCH37 DUB inh: inactive

How did O=[N+]([O-])c1ccc(/C=N/N2CCCCC2)cc1 do in these assays?
RanGTP-Impb inh: -0.2; Calb FLC: -7.6; B2AR ag: 3.4; T cruzi repl: 3.1; LANA-H2B inh: -5.2; Beta apoptosis: 3.3; A1 inh: -5.5

Results for CCOC(=O)c1c(-c2ccc(C)cc2)csc1NC(=O)C1CCCO1 (stereo unspecified) ?
RanGTP-Impb inh: 5.1; Calb FLC: -6.8; B2AR ag: 2.9; T cruzi repl: 15.9; Beta apoptosis: 5.7; A1 inh: 1.4; UCH37 DUB inh: -13.0

Results for COCCN(C(=O)COC(=O)c1ccc(C)o1)c1c(N)n(Cc2ccccc2)c(=O)[nH]c1=O ?
RanGTP-Impb inh: -0.3; Calb FLC: 1.5; B2AR ag: -0.9; T cruzi repl: -15.8; LANA-H2B inh: -1.4; Beta apoptosis: -0.2; A1 inh: -0.2

What do the screens show for `Cc1ccc(OCC(=O)NNC(=O)C2CCN(c3ncnc4sc(C)c(C)c34)CC2)cc1`?
RanGTP-Impb inh: -1.5; B2AR ag: -4.0; T cruzi repl: -7.1; LANA-H2B inh: 1.0; Beta apoptosis: -4.7; A1 inh: -0.4; UCH37 DUB inh: 1.2

How did CCC1=C2CC[C@H]3C(=O)N(C)C(=O)[C@H]3[C@H]2[C@@]2(Cc3ccccc3)C(=NCCOC)OC(=O)N2C1=O do in these assays?
RanGTP-Impb inh: -3.2; Calb FLC: -1.7; B2AR ag: 13.4; T cruzi repl: -1.5; LANA-H2B inh: 1.2; Beta apoptosis: -3.0; A1 inh: -1.0; UCH37 DUB inh: 0.9

Results for CC(CN1CCOCC1)OC(=O)c1ccc(Br)cc1 (stereo unspecified) ?
RanGTP-Impb inh: 2.8; Calb FLC: 7.1; B2AR ag: 7.9; T cruzi repl: -20.9; LANA-H2B inh: 1.4; Beta apoptosis: -4.9; A1 inh: -0.5; UCH37 DUB inh: -1.9

Results for O=C(OCCN1CCN(C2=NS(=O)(=O)c3ccccc32)CC1)c1cccc(Br)c1 ?
RanGTP-Impb inh: 2.1; Calb FLC: -22.2; B2AR ag: -1.2; T cruzi repl: 13.1; LANA-H2B inh: 3.8; Beta apoptosis: -7.0; A1 inh: -2.3; UCH37 DUB inh: 0.6

How did COc1ccccc1C(=O)C1CCCN(C(=O)c2ccccn2)C1 (stereo unspecified) do in these assays?
RanGTP-Impb inh: -4.5; Calb FLC: -22.2; B2AR ag: -0.8; T cruzi repl: 7.5; LANA-H2B inh: 1.8; Beta apoptosis: 2.0; A1 inh: 0.0; UCH37 DUB inh: 3.1

How did N#Cc1nc(N)nc(N(c2ccccc2)c2ccccc2)n1 do in these assays?
RanGTP-Impb inh: -3.4; Calb FLC: -2.3; B2AR ag: 8.2; T cruzi repl: 29.2; LANA-H2B inh: -4.4; Beta apoptosis: -11.6; A1 inh: -0.4; UCH37 DUB inh: 1.8

How did CNC(=S)N1CCN(C(=O)C2CCCO2)CC1 (stereo unspecified) do in these assays?
RanGTP-Impb inh: -3.4; Calb FLC: -0.1; B2AR ag: -4.2; T cruzi repl: -2.8; LANA-H2B inh: 4.5; Beta apoptosis: 0.4; A1 inh: 0.7; UCH37 DUB inh: 6.9

Results for Cc1cccc(NC(=O)C2C(c3ccccc3)C2(Cl)Cl)c1C (stereo unspecified) ?
RanGTP-Impb inh: 11.2; Calb FLC: -11.0; B2AR ag: 0.5; T cruzi repl: -15.9; LANA-H2B inh: -0.3; Beta apoptosis: 3.1; A1 inh: 0.2; UCH37 DUB inh: 0.5

Results for O=C1c2ccccc2-c2c1cccc2C(=O)N(CCO)CCO ?
RanGTP-Impb inh: -2.8; Calb FLC: -3.0; B2AR ag: -1.9; T cruzi repl: -19.8; LANA-H2B inh: -2.9; Beta apoptosis: 0.5; A1 inh: -0.1; UCH37 DUB inh: 3.5

What do the screens show for `Cc1cccc(C(=O)NNC(=O)c2ccco2)c1O`?
RanGTP-Impb inh: 2.2; Calb FLC: 26.6; B2AR ag: -7.6; T cruzi repl: -1.1; LANA-H2B inh: -1.7; Beta apoptosis: 0.4; A1 inh: -5.4; UCH37 DUB inh: 0.6

Results for Cc1ccc(C(=O)c2ccc(O)cc2)cc1C ?
B2AR ag: 20.2; LANA-H2B inh: -4.2; Beta apoptosis: -10.4; A1 inh: -1.4; UCH37 DUB inh: 2.5

How did COC(=O)CSc1nnc(CNC(=O)c2ccccc2F)n1-c1ccc(F)cc1 do in these assays?
RanGTP-Impb inh: inconclusive; Calb FLC: -1.2; B2AR ag: -0.9; T cruzi repl: -14.2; LANA-H2B inh: -6.2; Beta apoptosis: -0.9; A1 inh: -0.1; UCH37 DUB inh: 2.1

How did C=CCN(c1ccccc1)S(=O)(=O)c1ccc(Cl)c(C(=O)OCC(=O)c2[nH]c(C)c(C(C)=O)c2C)c1 do in these assays?
RanGTP-Impb inh: -1.1; Calb FLC: 6.5; B2AR ag: 5.6; T cruzi repl: 10.9; LANA-H2B inh: 5.1; Beta apoptosis: -8.6; A1 inh: -0.4; UCH37 DUB inh: 1.6

Results for COc1cccc(-c2ccc(C#N)c(=O)[nH]2)c1 ?
RanGTP-Impb inh: 3.1; Calb FLC: 2.9; B2AR ag: -17.1; T cruzi repl: -10.3; LANA-H2B inh: 1.3; Beta apoptosis: -1.1; A1 inh: -0.8; UCH37 DUB inh: -213.5

How did COc1ccc(NC(=O)CSCC(=O)N(C)Cc2cccc(OC)c2OC)cc1 do in these assays?
RanGTP-Impb inh: -1.7; Calb FLC: 6.6; B2AR ag: -1.3; T cruzi repl: -0.6; LANA-H2B inh: 4.6; Beta apoptosis: 0.7; A1 inh: 0.0; UCH37 DUB inh: 2.3

Results for O=C(c1nc2ccc(Cl)cn2c1CN1CCC(O)CC1)N1CCc2ccccc2C1 ?
RanGTP-Impb inh: -0.3; Calb FLC: -1.2; B2AR ag: -15.5; T cruzi repl: -0.5; LANA-H2B inh: -4.9; Beta apoptosis: -0.4; A1 inh: 0.2; UCH37 DUB inh: 3.0

How did O=C(O)CSc1ncnc2sc3c(c12)CCCC3 do in these assays?
RanGTP-Impb inh: -4.6; Calb FLC: -13.2; B2AR ag: -0.9; T cruzi repl: -4.2; LANA-H2B inh: -4.0; Beta apoptosis: -4.0; A1 inh: -0.7; UCH37 DUB inh: -4.3

What do the screens show for `Cc1ccc(S(=O)(=O)N2CCN(C(=O)C3CCCCC3)CC2)cc1`?
RanGTP-Impb inh: -1.7; Calb FLC: -12.0; B2AR ag: -0.3; T cruzi repl: -1.0; LANA-H2B inh: 0.9; Beta apoptosis: 1.7; A1 inh: 0.0; UCH37 DUB inh: 3.0

Results for Cc1nc2ccc(NS(=O)(=O)c3ccc(F)cc3F)cc2s1 ?
B2AR ag: 17.1; LANA-H2B inh: 3.0; Beta apoptosis: 4.5; A1 inh: -0.7; UCH37 DUB inh: -1.9

Results for CS(=O)(=O)N(CC(=O)N1CCCCC1)c1ccc2c(c1)OCO2 ?
RanGTP-Impb inh: -2.2; Calb FLC: -1.1; B2AR ag: -0.6; T cruzi repl: 4.2; LANA-H2B inh: -2.9; Beta apoptosis: -1.1; A1 inh: 0.4; UCH37 DUB inh: 1.4

Results for Cc1nnc(C)c2c(C)n(C(C)c3ccccc3)c(C)c12 (stereo unspecified) ?
RanGTP-Impb inh: 0.9; Calb FLC: 7.8; B2AR ag: 13.3; T cruzi repl: 29.7; LANA-H2B inh: 1.7; Beta apoptosis: 14.4; A1 inh: 0.9; UCH37 DUB inh: -4.5

How did CC(=O)N1CCc2[nH]c3ccc(C)cc3c2C1 do in these assays?
RanGTP-Impb inh: -19.3; Calb FLC: -7.6; B2AR ag: 12.0; T cruzi repl: -7.4; LANA-H2B inh: -3.8; Beta apoptosis: -3.2; A1 inh: 0.6

Assay outcomes: PubChem BioAssay, several laboratories
